From PubChem
MARV entry inh: blocks Marburg virus binding to or entry into cells; Potency, µM (series often up to 37.8 µM), for the others: at the highest dose activity change, negative = inhibition, usual class: inhibitors; Marburg virus pseudotyped entry inhibition, cell reporter; control for the full effect not named in the record; about a third of the inactives were read at about 46 µM; 300,000 compounds, 1.8% hits; AID 540276; active = well fitted inhibition curve with a large enough effect; inconclusive = small, poorly fitted or top-dose-only effect, or effect the other way; inactive = flat fitted curve, though single readings scatter; tested in HEK293 cells; about a fifth of its hits are not listed in these tables; note: % is set by controls: 0 for no effect and ±100 for the full control effect; luciferase read-out
RE007 growth inh: less growth of the S. pombe RE007 Vpr strain | S. pombe RE007 Vpr strain, BacTiter-Glo ATP luminescence, 24 h; control for the full effect not named in the record | Potency, µM (top dose mostly 92.2 µM), for the others: at the highest dose activity change, negative = less growth | 360,000 compounds, 0.21% hits | AID 651644; active = well fitted falling curve with a large enough effect; inconclusive = small, poorly fitted or top-dose-only effect; inactive = no such curve, though single readings can be large or run the other way;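 note: % is set by controls: 0 for no effect and ±100 for the full control effect; nearly all actives have a fitted effect of over 50% in size; the assay follows cell death caused by Vpr and the record does not say whether a fall means rescue or toxicity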
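Fission yeast RE007 carrying one integrated HIV-1 vpr copy, seeded at OD 0.01 in PMG+AL medium with 23 nL pinned compound. Grown 24 h at 30 degrees; viability read by BacTiter-Glo luminescence after 5 min.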
Cruzain inh Det: cruzain (T. cruzi) inhibition with detergent; P25779; purified cruzain, Z-FR-AMC fluorescence, 0.01% Triton; Potency, µM, for the others: max response, negative = inhibition, most hits filed as inhibitors; 200,000 compounds, 0.43% hits; AID 1478;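 note: plate controls were neutral wells for no effect and buffer without enzyme for full effect; nearly all actives have a fitted effect of over 40% in size; top concentration of the series not given in the record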
Target sequence (P25779 123-467 limits assumed): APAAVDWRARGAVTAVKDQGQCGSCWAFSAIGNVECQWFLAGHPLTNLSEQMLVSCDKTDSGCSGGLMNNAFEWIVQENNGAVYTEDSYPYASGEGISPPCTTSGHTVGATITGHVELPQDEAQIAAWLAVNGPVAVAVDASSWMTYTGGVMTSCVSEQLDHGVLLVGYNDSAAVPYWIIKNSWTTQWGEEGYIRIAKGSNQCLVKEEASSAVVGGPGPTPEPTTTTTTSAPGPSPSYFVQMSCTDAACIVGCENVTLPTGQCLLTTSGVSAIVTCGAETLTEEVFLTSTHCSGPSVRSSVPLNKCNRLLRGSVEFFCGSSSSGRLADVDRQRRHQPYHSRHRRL
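Read-out: AMC fluorescence (360 nm excitation, 450 nm emission), four reads over 2 min, first-to-third difference used. Conditions: cruzain 1.5 nM, Z-FR-AMC 2 uM, pH 5.5 acetate, 5 mM DTT, 0.01% Triton X-100.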
Cruzain noTriton: cruzain (T. cruzi) inhibition without detergent. purified cruzain, Z-FR-AMC fluorescence, no detergent. Potency, µM, for inactives: max response, negative = inhibition, most hits filed as inhibitors. P25779. 200,000 compounds, 2.3% hits;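 note: plate controls were enzyme without inhibitor for no effect and buffer without enzyme for full effect; nearly all actives have a fitted effect of over 40% in size; top concentration of the series not given in the record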
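Detergent-free condition (0.00005% Triton X-100) in acetate buffer pH 5.5 with DTT. 1.5 nM enzyme and compound were pre-mixed 15 min, then 2 uM Z-FR-AMC substrate added; reaction progress from fluorescence change between first and third reads (60 s).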
2A StopGo: FMDV 2A StopGo reporter, luciferase signal. AID 1159524. 410,000 compounds, 1.2% hits. human cells with a luciferase reporter of 2A StopGo recoding; control for the full effect not named in the record. Potency, µM (doses to about 57.9 µM), for the others: at the top dose signal change, negative = less light; active = well fitted falling curve with a large enough effect; inconclusive = small, poorly fitted or top-dose-only effect; inactive = no such curve, though single readings can be large or run the other way; tested in HEK293T cells; note: % is set by controls: 0 for no effect and ±100 for the full control effect; nearly all actives have a fitted effect of over 45% in size; luciferase light after 4 h
SARS PLpro yeast: blocks SARS-CoV papain-like protease in a yeast assay. S. cerevisiae expressing SARS-CoV PLpro, growth rescue; control for the full effect not named in the record. Potency, µM (highest dose often 32.9 µM), for inactives: at the highest dose activity, positive = growth rescue. 330,000 compounds, 0.19% hits; active means well fitted rising curve with a large enough effect; inconclusive means small, poorly fitted or top-dose-only effect; inactive means no such curve, though single readings can be large or run the other way; note: 0% is about no effect; nearly all actives have a fitted effect of over 55% in size; growth read by luminescence after 48 h
Lassa entry inh: Lassa virus entry inhibition; 300,000 compounds, 1.2% hits; AID 540256; Potency, µM (doses to about 37.9 µM), without a hit: at the highest dose activity change, negative = inhibition, actives largely listed as inhibitors; Lassa virus pseudotype entry inhibition, cell reporter; control for the full effect not named in the record; active means well fitted inhibition curve with a large enough effect; inconclusive means small, poorly fitted or top-dose-only effect, or effect the other way; inactive means flat fitted curve, though single readings scatter; tested in HEK293 cells; note: % is set by controls: 0 for no effect and ±100 for the full control effect; nearly all actives have a fitted effect of over 50% in size; luciferase read-out
NS1 inh: inhibitors of influenza NS1 protein function; Potency, µM (highest dose often 46.1 µM), for the others: at the top dose activity, positive = more growth; S. cerevisiae slowed by influenza A NS1, growth recovery by OD600; 270,000 compounds, 0.4% hits; AID 2326; active means well fitted rising curve with a large enough effect; inconclusive means small, poorly fitted or top-dose-only effect; inactive means no such curve, though single readings can be large or run the other way; note: nearly all actives have a fitted effect of over 50% in size
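S. cerevisiae expressing influenza A NS1, grown in glucose, washed, then diluted 1:100 into pH 6.0 -URA galactose medium with 23 nl compound. Growth recovery read as OD600; NS1-free strain serves as control.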
* hit, by the source's call; ? = inconclusive; nt = no result given; & = joins results of further samples; [ ] = dose if it differs, or a comment. Unless noted, calls come from the whole dose curve; as a rule, active = well fitted curve in the direction sought with a large enough effect; inconclusive = small, poorly fitted or top-dose-only effect, or another doubt; inactive = no such curve, though single readings can be large; an effect the other way counts as inactive or inconclusive. Potency is the fitted concentration of half-maximal effect. Compounds were not picked by outcome. About 4.5% of those tested had a hit in this group.

canonical_smiles,MARV entry inh,RE007 growth inh,Cruzain inh Det,Cruzain noTriton,2A StopGo,SARS PLpro yeast,Lassa entry inh,NS1 inh
Cc1cccn2c(=O)c3c(nc12)N1CCc2ccccc2C1C1(C3)C(=O)NC(=O)N(C)C1=O (configuration not stated),-14%,-3%,-7.9%,3%,-12%,-6%,?,-2%
O=C(OCc1cc(=O)n2ccsc2n1)c1ccccc1O,?,-3%,nt,nt,81%[activator],-3%,7%,nt
C(=NC12CN3CN(CN(C3)C1)C2)c1ccc2c(c1)OCO2,10%,-13%,0.5%,-4%,11%,4%,3%,11%
O=C(NCCS(=O)(=O)N1CCN(c2ccccc2)CC1)c1ccccc1F,0%[46.1 µM],-10%,nt,nt,-16%,-6%,-1%,nt
Cc1cccc(C)c1OCc1cc(C(=O)N(Cc2c(C)nn(C)c2C)C2CC2)no1,nt,13%,nt,nt,20µM*,-5%,nt,-7%
CCN(CC)CCCNc1nc(CN2CCOCC2)nc2sc3c(c12)CCC3,?,-23%,nt,nt,6%,4%,-5%,4%
CC/C(=C/c1sc2ccc(C)cc2[n+]1CCCS(=O)(=O)[O-])SC,25%[46.1 µM],-23%,nt,nt,-14%,5%,-18%,nt
O=C(NCc1nnc(SCC(=O)N2CCCCCC2)o1)c1ccccc1F,4%[46.1 µM],3%,nt,nt,-12%,?,-1%[46.1 µM],6%
CCOC(=O)C1=C(COC(=O)c2cccc(Cl)c2)NC(=O)NC1C (configuration not stated),12%[46.1 µM],-20%,nt,nt,-2%,6%,3%[46.1 µM],3%
CCc1ccc(NC(=O)CSc2nccn2C2CCCC2)cc1,nt,nt,2.0%,4%,23%,nt,-2%[46.1 µM],nt
COc1ccc(C(C(=O)NC2CCCC2)N(CC2CCCO2)C(=O)Cc2cccs2)cc1OC (configuration not stated),nt,11%,nt,nt,0%,1%,nt,-6%
CC(C)CSc1nc2c(c(=O)[nH]c(=O)n2C)n1CCc1ccccc1,-8%,-10%,1.8%,?,?,-4%,?,2%
O=C(N/N=C\c1ccccc1OCc1ccccc1)c1ccco1,-13%,-9%,-9.5%,-10%,-9%,-25%,-15%,-28%
CN(C)CCN(C(=O)c1ccc2ccccc2c1)c1nc2cc3c(cc2s1)OCCO3,?,-8%,nt,nt,13%,-8%,-29%,-36%
CN(C)c1ccc(C(=O)N2CCCC(CCC(=O)N3CCN(c4ccccn4)CC3)C2)cc1 (configuration not stated),-20%,-2%,nt,nt,?,-8%,-9%,-1%
O=P(c1ccccc1)(c1ccccc1)c1cc(Br)cc(Br)c1OCCO,13µM*,9%,nt,nt,-20%,1%,-4%[46.1 µM],-2%
CCOc1ccc(NC(=O)CSc2nc(=O)n(Cc3ccccn3)c3c2CCC3)cc1,-9%,-2%,nt,nt,-21%,1%,-12%,nt
CN(C(=O)CSc1nnc(-c2cccc(F)c2)n1N)C1CCS(=O)(=O)C1 (configuration not stated),8%[46.1 µM],1%,nt,nt,12%,-3%,8%,nt
CCN(CC)c1ccc(/C=C(\C#N)c2ccccn2)cc1,?,0%,-9.3%,-10%,-44%,-61%,5.8µM*,-16%
CCOc1cc(/C=N/n2cnnc2)ccc1OC(=O)c1cccc([N+](=O)[O-])c1,6%,1%,2.8%,3%,-13%,-8%,-6%,9%
Cc1ccc(S(=O)(=O)NCCc2nnc(SCc3cccnc3)n2C)cc1,0%[46.1 µM],-24%,nt,nt,3%,-8%,2%,3%
COc1ccc(-c2nc3cc(C)ccn3c2NCc2ccc3c(c2)OCO3)cc1,nt,-22%,nt,nt,23%,-2%,nt,-4%
COc1ccc(OC)c(NC2=NCCS2)c1,14%[46.1 µM],-17%,nt,nt,23%,0%,-19%[46.1 µM],4%
CCC(CC)NC(=O)/C=C/c1ccccc1Cl,?,-20%,-1.6%,-8%,34%[activator],-4%,?,5%
CCC(=O)c1ccc(OCC(O)CN(CCc2ccccc2)Cc2ccccc2)cc1 (configuration not stated),?,-5%,1.6%,-3%,nt,-5%,16µM*,-66%
c1ccc(CN2CCN(c3cnc4ccccc4n3)CC2)cc1,nt,-2%,nt,nt,16%,2%,nt,2%
Cc1ccc(S(=O)(=O)Nc2ccc(Oc3cccnc3)nc2)cc1,11%,-3%,nt,nt,23%,0%,-14%,-8%
Cc1c(N=Nc2c(O)n(-c3ccc(Br)cc3)c(=O)[nH]c2=O)c(=O)n(-c2ccccc2)n1C,6%[14.2 µM],2%,nt,nt,-15%,-1%,-23%,-14%
COC(=O)Cc1[nH]n(-c2nc3ccccc3s2)c(=O)c1C(C)=O,4%,?,-2.4%,-2%,60%[activator],-20%,1%,4%
CC(=O)c1ccc(N2CCN(c3ncnc4c3c(-c3ccccc3)cn4-c3ccc(Cl)cc3)CC2)cc1,nt,nt,-0.9%,-3%,-14%,nt,?,nt
CC(NC(=O)c1ccc(NC(=O)c2ccco2)cc1)c1ccccc1 (configuration not stated),-8%,-11%,nt,nt,0%,1%,12%,-10%
CCc1ccc(OCC(=O)Nc2ncc3c(n2)CC(C)(C)CC3=O)cc1,11%,3%,2.2%,2%,13%,-2%,17%,-2%
O=C(NCCCN1CCOCC1)c1cc(-c2ccccc2)nc2ccccc12,-4%,1%,nt,nt,9%,-7%,0%[46.1 µM],nt
CCOc1ccc(CNC(=O)Cn2c(=O)c3cccn3c3ccc(F)cc32)cc1OC,nt,nt,-3.5%,-5%,0%,nt,7%[46.1 µM],nt
CCCn1cc(S(=O)(=O)c2ccccc2)c(=O)c2cc(OCC)ccc21,nt,-17%,nt,nt,-14%,1%,nt,-6%
COc1ccc(-c2c(C#N)c(N)nc3sc(C(=O)c4ccccc4)c(N)c23)cc1,10%,6%,-4.8%,-71%,-25%,9%,-23%,7%
O=C(O)C(Cc1c[nH]c2ccccc12)NS(=O)(=O)c1ccc(Br)cc1 (configuration not stated),-1%[46.1 µM],3%,nt,nt,0%,4%,20%,1%
O=C(NCc1n[nH]c(=S)n1-c1ccc(F)cc1)c1ccc(S(=O)(=O)N2CCCC2)cc1,12%,12%,0.2%,0%,nt,9%,-3%,-2%
COc1ccc(C)cc1-n1ccn(CC(=O)Nc2ccc(Br)cc2F)c(=O)c1=O,13%,6%,nt,nt,-7%,0%,-3%,nt
O=C(Nc1ccccc1)Nc1ccc(F)cc1F,nt,-17%,nt,nt,40%[activator],-1%,nt,-7%
O=C(COC(=O)/C=C/c1ccc(F)cc1)Nc1ccc(S(=O)(=O)N2CCOCC2)cc1,?,-12%,nt,nt,-23%,-9%,11%,nt
Cc1cccc(N(C(=O)c2snc(C(N)=O)c2N)C(C(=O)NCC2CCCO2)c2ccc(N(C)C)cc2)c1 (configuration not stated),?,-11%,nt,nt,-9%,14%,nt,13%
CC(=O)NNC(=O)C(O)(c1ccccc1)c1ccccc1,8%,15%,6.1%,-8%,-7%,-1%,-2%,1%
c1ccc(-n2ncc3c2ncn2nnnc32)cc1,-4%&-4%,5%,5.8%,-6%,nt,8%,-8%,-9%
c1ccc(NCc2cccc3ccccc23)nc1,nt,-17%,nt,nt,0%,-5%,nt,-25%
Cc1ccc2c(=O)cc(CSCC(=O)Nc3nnc(C)s3)[nH]c2c1,nt,nt,-1.4%,20%,-9%,nt,2%[46.1 µM],nt
CCCC(=O)c1ccc(N2CCN(C(=O)c3ccccc3Br)CC2)c(F)c1,?,-29%,-5.4%,12%,-24%,-25%,-29%,-79%
N#CC1=C(N)OC2=C(C(=O)CCC2)C1c1cccs1 (configuration not stated),?,-3%,nt,nt,0%,-1%,10%,4%
Cc1cc(N2CCN(C)CC2)nc2ccc(NC(=S)NCCC(C)C)cc12,nt,3%,nt,nt,6%,-2%,nt,-3%
CCCC(=O)NC(Nc1cccc(C(F)(F)F)c1)C(Cl)(Cl)Cl (configuration not stated),-5%,21%,-2.4%,-9%,-27%,-6%,1%,-30%
CC(C)c1ccc(C2N3CC4(C)CN2CC(c2ccccc2)(C3)C4=O)cc1 (configuration not stated),5%[46.1 µM],nt,0.9%,-4%,0%,nt,9%[46.1 µM],nt
CCOC(=O)c1oc2ccc3c(c2c1C)C(=O)CC1(CCN(C(=O)OCC)CC1)O3,-13%,2%,-6.4%,?,?,?,-16%,3%
CC1CCCC(NC(=O)COC(=O)COc2ccc(C#N)cc2)C1C (configuration not stated),2%,2%,nt,nt,-6%,5%,-3%,nt
N/C(Cc1ccc([N+](=O)[O-])cc1)=N\OC(=O)c1ccc(Br)o1,?,22%,-3.8%,-2%,-28%,8%,?,-27%
CCN1C(=O)C(O)(CC(=O)c2ccc3c(c2)OCCO3)c2ccccc21 (configuration not stated),nt,-3%,0.6%,-5%,-18%,4%,nt,-4%
O=C(CN1C(=O)C2C3CCC(C3)C2C1=O)OCC(=O)c1ccc(Br)cc1 (configuration not stated),nt,2%,nt,nt,-16%,-2%,nt,-10%
CCOC(=O)c1c(-c2ccc(C)cc2)csc1NC(=O)C1CC=CCC1C(=O)O (configuration not stated),-2%,1%,-6.5%,?,-21%,3%,23%,19%
C=CCN1CN(Cc2ccco2)CNC1=S,4%,-4%,-0.1%,-2%,-5%,19%,17%,2%
O=C(c1ccc(C(F)(F)F)cc1)N1CCC(=O)N(C(COCc2ccc(Cl)cc2)Cc2ccccc2)CC1 (configuration not stated),?,-19%,-6.9%,?,-27%,-15%,?,25%
CN(C)Cc1c(C(=O)N/N=C/c2cccc(OCc3ccc(F)cc3)c2)nnn1-c1nonc1N,?,5%,nt,nt,?,3%,?,3%
Cc1nnc(SCSc2nnc(C)s2)s1,-16%,24%,5.0%,-5%,-12%,-2%,2%,?
CCN(CC)CCCNC(=O)CSc1nc2nc(C)c(Cc3ccccc3C)c(C)n2n1,-40%[46.1 µM],nt,-2.9%,1%,-25%,nt,?,nt
